Rango release inh = prevents RanGTP from dissociating the Rango-importin beta complex | actives 0.071% (n = 340,000) | AID 540253 | Biochemical FRET Rango-importin beta, RanGTP-induced dissociation | Potency, µM (series often up to 46.1 µM), inactives show at the highest dose activity change, negative = inhibition; active means falling FRET ratio curve, often poorly fitted, with flat reads before Ran was added; inconclusive means other falling curves, or compound fluorescence or quenching; inactive means flat or rising ratio curve;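 further: potency means the concentration at half of the fitted maximal effect; % of control where 0% means no effect; nearly all actives have a fitted effect of over 45% in size; -100% = wells without RanGTP and RCC1; the record marks most hits as doubtful in a second field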
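Compounds preincubate 5 min with complex of recombinant Rango and importin beta in PBS with 1 mM DTT. Ran (0.6 uM) loaded with 2 mM GTP plus 0.2 uM RCC1 starts dissociation; FRET is recorded 45 min later.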
GLA inh pH 4.5 = inhibitors of human alpha-galactosidase A at pH 4.5 | activity change, negative = inhibition, % at 105 µM | 230,000 tested, under 10 active | purified enzyme, 4-MU-alpha-Gal fluorescence, pH 4.5 | AID 1467 | P06280; inconclusive = small, poorly fitted or top-dose-only inhibition, or a rising curve; inactive = flat fitted curve, though single readings scatter; no compound was filed as active;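 further: 0% = full activity with enzyme and -100% = basal without enzyme; dose as in the result columns while the protocol names 77 µM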
Target sequence (P06280 whole entry, looked up): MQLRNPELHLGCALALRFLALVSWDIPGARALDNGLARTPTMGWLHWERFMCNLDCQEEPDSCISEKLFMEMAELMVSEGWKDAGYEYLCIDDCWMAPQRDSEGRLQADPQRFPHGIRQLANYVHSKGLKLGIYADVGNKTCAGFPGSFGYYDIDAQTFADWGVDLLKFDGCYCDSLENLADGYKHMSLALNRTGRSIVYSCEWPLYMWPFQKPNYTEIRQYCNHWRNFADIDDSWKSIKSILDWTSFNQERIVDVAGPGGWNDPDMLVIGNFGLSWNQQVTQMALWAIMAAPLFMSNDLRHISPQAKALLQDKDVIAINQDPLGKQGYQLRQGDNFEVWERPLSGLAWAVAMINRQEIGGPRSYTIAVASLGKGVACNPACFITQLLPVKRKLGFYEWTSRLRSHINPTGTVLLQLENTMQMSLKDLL
Rango-impB inh = prevents formation of the Rango-importin beta complex. Q14974. Rango CFP/YFP FRET sensor + importin beta, 45 min. Potency, µM (titrated, usually from 92.2 µM), without a hit: top-dose inhibition of complex formation. actives 0.031% (n = 340,000). AID 540263; active = rising FRET ratio curve, often small or poorly fitted; inconclusive = mostly compound fluorescence or quenching in the first reads; inactive = flat curves in all reads;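 further: potency means the concentration at half of the fitted maximal effect; 0% = DMSO wells and 100% = buffer wells lacking importin beta; nearly all actives have a fitted effect of over 15% in size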
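FRET biosensor Rango (snurportin 1 IBB between N-terminal EYFP and C-terminal Cerulean), 50 nM in PBS/1 mM DTT/0.02% Tween-20/0.1% BSA, preincubated 5 min RT with compound; 0.125 microM importin beta added, 45 min RT, CFP/YFP FRET ratio read.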
miR-21 FLuc = raises the signal of a miR-21 reporter. HeLa miR-21 FLuc reporter, luciferase, 48 h. Potency, µM (doses to about 38.3 µM), inactives show at the highest dose reporter change, positive = more light. 340,000 tested, under 10 active. AID 2288; active = well fitted rising curve with a large enough effect; inconclusive = small, poorly fitted or top-dose-only effect; inactive = no such curve, though single readings can be large or run the other way;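 further: % of control where 0% means no effect; miR-21 action dims this reporter so a rising signal means less miR-21 action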
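Luminescence from a firefly luciferase reporter carrying a miR-21 binding site downstream, stably expressed under a CMV promoter in HeLa cells that make miR-21 endogenously, reports miRNA modulation after 48 h compound exposure up to approximately 40uM final.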
The depositor's hits bear a star; ? = inconclusive; . = no result given.

Structure | Rango release inh | GLA inh pH 4.5 | Rango-impB inh | miR-21 FLuc
C=CCN1C(=O)C2C(C(=O)NCc3ccccc3)C3C=CC2(O3)C1C(=O)NC(C)(C)C (centres undefined) | 3% | 2 | ? | -3%
C=CC[C@@H](CC(=O)NCCO)C(=O)NC[C@H](OC(=O)[C@@H](CC=C)Cc1ccc(F)cc1)c1ccccc1 | -4% | . | 0.2% | .
CCn1cc(S(=O)(=O)CC(=O)Nc2ccc(OC)cc2)c2ccccc21 | -2% | 6 | -4.1% | -12%
O=C(Cn1cc(/C=N/NC(=O)c2cccc3ccccc23)c2ccccc21)Nc1ccc(F)cc1 | -13% | 4 | -3.8% | 13%
COc1cccc(CC2(CO)CCN(Cc3ccc(NC(C)=O)cc3)CC2)c1 | -1% | -4 | ? | 0%
CC(C)c1nnc(SCC(=O)N2CCc3ccccc32)n1C | 9% | -9 | 0.0% | 1%
Cc1ccccc1OCCC(=O)Nc1c(C)n(C)n(-c2ccccc2)c1=O | 1% | 0 | 2.2% | -2%
Cc1nn2c(-c3ccc(Cl)cc3Cl)nnc2s1 | 0% | 5 | -0.1% | -8%
Cc1ccc(CS(=O)Cc2ccc(C(=O)NCc3cccs3)o2)cc1 (centres undefined) | 4% | . | -1.1% | 2%
CN1CCN(S(=O)(=O)c2ccc(C#N)cc2)C(c2ccccc2)C1 (centres undefined) | -2% | . | -6.1% | .
COc1ccc(/C=C2\CN(Cc3ccccc3)C/C(=C\c3ccc(OC)cc3OC)C2=O)c(OC)c1 | -24% | -6 | ? | 15%
CCn1c(SCC(=O)N2CCc3ccccc32)nnc1-c1ccncc1 | 12% | 1 | 0.7% | 0%
CSc1nc(-c2ccccc2)nc(C(C)C)n1 | 2% | . | 0.4% | .
Cc1cc(Oc2ccc(=O)n(C)n2)nc(Oc2ccc(=O)n(C)n2)n1 | -13% | -7 | -0.1% | -3%
Cc1cc(C)nc(SCC(=O)NN=Cc2ccc(C)o2)n1 | 2% | . | 2.3% | .
O=C(c1nnsc1S(=O)c1ccc(Cl)cc1)N1CCOCC1 (centres undefined) | 36% | -1 | 1.7% | ?
CC(C)(C)NC(=O)CN(C(=O)CNC(=O)c1cccs1)c1ccc2c(c1)OCCO2 | 10% | 3 | -0.1% | 0%
Cc1ccc(NC(=O)CNc2cccc(S(=O)(=O)N3CCOCC3)c2)cc1F | -9% | . | -1.1% | .
Cc1nc(SCc2ccccc2)[nH]c(=O)c1CC(=O)OCC(C)C | 0% | . | 1.2% | -1%
COc1ccc(Cl)cc1NC(=O)CN1CCc2ccccc21 | -17% | -13 | 0.1% | -3%
COc1cc(NC(=O)CSc2nc3cc(C)ccc3cc2C)c(C(=O)O)cc1OC | 1% | 6 | -0.2% | -9%
CN(C)c1nn(C(=O)Nc2ccc(Cl)cc2Cl)cc1-c1ccccc1 | 1% | -6 | -7.8% | 0%
c1cncc(-c2nc(N3CCOCC3)c3ccccc3n2)c1 | 3% | 3 | 0.9% | 5%
O=c1[nH]c2cc3c(cc2cc1CN(CCO)S(=O)(=O)c1ccccc1)OCCO3 | 0% | 22 | -0.5% | -1%
O=C(CCNC(=O)c1ccc([N+](=O)[O-])cc1)NCCc1ccc(Cl)cc1 | 28% | . | -2.9% | -1%
CC(Cc1ccccc1)C(=O)N(C)Cc1cccnc1 (centres undefined) | 6% | 0 | -0.8% | -2%
CC(=O)N1N=C(c2ccc(C)o2)CC1c1ccc(F)cc1 (centres undefined) | 1% | -3 | -3.7% | -11%
Cc1ccn2c(=O)nc(SCC(=O)N3N=C(c4cccs4)CC3c3ccc(F)cc3)nc2c1 (centres undefined) | -5% | . | -7.7% | .
O=C(/C=C/c1ccco1)NC(=S)Nc1ccccc1O | -14% | 3 | 10% | -4%
O=C(OCc1nnc(-c2cccs2)o1)C1=NN(c2ccccc2)C(=O)CC1 | -4% | . | -0.2% | .
Cc1ccc(S(=O)(=O)N(C)CC(=O)O/N=C(\N)c2ccccn2)cc1 | 14% | 2 | 1.7% | 0%
Cc1ccc(C)c(NC(=S)NCCCN2CCOCC2)c1 | 3% | 0 | 0.7% | 2%
Cc1ccc(OCC(=O)NNC(=O)CSc2ncnc3sc(C)c(C)c23)cc1 | 0% | 4 | 0.4% | -2%
COc1ccc(CCN(C)C(=O)CCNC(=O)c2ccc(Br)cc2)cc1OC | 2% | . | 4.4% | 0%
CS(=O)(=O)N1CCN(c2ccc(C(=O)N3CCOCC3)cc2[N+](=O)[O-])CC1 | 5% | 7 | -1.7% | 0%
Cc1ccc(S(=O)(=O)N2CCC(C(=O)Nc3ccc4c(c3)COC4=O)CC2)cc1 | -9% | 2 | 0.3% | 6%
C=CCn1c(CNC(=O)c2ccccc2F)nnc1SCC(=O)NC(C)c1ccccc1 (centres undefined) | -2% | 7 | 3.2% | 0%
O=C(CN(C(=O)c1csnn1)c1ccccc1Cl)NCCc1ccccc1 | 1% | . | -2.0% | 7%
O=C(O)CCCC(=O)N1N=C(c2ccco2)CC1c1ccco1 (centres undefined) | 15% | . | -0.5% | 0%
CCOc1ccccc1NC(=O)N1CCC(c2nc3ccccc3[nH]2)CC1 | -2% | -1 | 0.8% | 5%
COc1ccc(N(C(=O)c2snc(C(N)=O)c2N)C(C(=O)NCc2ccccc2)c2ccc(F)cc2)c(OC)c1 (centres undefined) | 22% | . | ? | 11%
COc1cc(CN2CC(C)CC(C)C2)cc([N+](=O)[O-])c1O (centres undefined) | -5% | -3 | -1.6% | -9%
Cc1onc(C(=O)Nc2ccc(OC(F)(F)F)cc2)c1[N+](=O)[O-] | -2% | . | 2.3% | 0%
ClC(CCN1CCN(Cc2ccccc2)CC1)c1ccccc1 (centres undefined) | -6% | . | 1.5% | .
C=CCN1C(=O)/C(=C\C=C2\N(C)c3ccccc3C2(C)C)SC1=S | -8% | -2 | 9.4% | -1%
CCn1c(SCC(=O)OC2CCCCC2)nc2ccccc2c1=O | -1% | -6 | 0.3% | -3%
O=C(Nc1ccc(S(=O)(=O)N2CCOCC2)cc1)C1CCN(S(=O)(=O)c2ccccc2)CC1 | -10% | . | 0.9% | .
CS(=O)(=O)CCC(C(=O)OCc1ccc(Br)cc1)N1C(=O)c2ccccc2C1=O (centres undefined) | -4% | 1 | 0.2% | -3%
O=c1c2c(nc3n1CCCCC3)-c1ccccc1CC21CCCCC1 | 10% | 2 | 1.3% | -2%
NC(=O)NC(=O)CN1c2cccc3cccc(c23)S1(=O)=O | 0% | . | 4.1% | 1%
COc1ccccc1OC(C)C(=O)N1CCC(Cc2ccccc2)CC1 (centres undefined) | -5% | . | -2.4% | 13%
Cc1ccc(C)c(N2CN(Cc3cccnc3)CNC2=S)c1 | 2% | 0 | -0.2% | -5%
COc1cc(C=NNC(=O)c2cccnc2)ccc1OC(=O)c1ccccc1F | -3% | . | -2.4% | .
CSc1nc(-c2ccccc2)nc2c1COC(C)(C)C2 | 25% | -1 | 0.1% | 2%
CN(C)c1cccc(C(=O)NNC(=O)CN2C(=O)C3CC=CCC3C2=O)c1 (centres undefined) | -21% | . | 0.3% | .
CCc1nc2ccccc2n1CC1CC1(Cl)Cl (centres undefined) | -9% | -10 | -3.0% | -6%
O=C(Nc1nnc(-c2ccc3c(c2)CCCC3)o1)c1ccccc1Cl | -8% | 4 | 1.3% | 4%
COC(=O)C1CCCCN1C(=O)CCc1nnc(CCc2c[nH]c3ccccc23)o1 (centres undefined) | 2% | 10 | 2.7% | -3%
CCCCCCOc1ccc(C(=O)O)cc1C#N | 0% | -2 | 0.0% | -23%
CCOC(=O)c1sc(/N=C/c2ccc(O)cc2O)cc1C | -22% | -5 | -5.2% | -18%

The listing continues:
Structure | Rango release inh | GLA inh pH 4.5 | Rango-impB inh | miR-21 FLuc
CC(C)(C)C(=O)Cn1c[n+](N)cn1 | 13% | 2 | -0.3% | -6%
COc1ccc(C(=O)Nc2nc(-c3ccc([N+](=O)[O-])cc3)c(-c3ccc(OC)cc3)s2)cc1 | -3% | -18 | 0.3% | -8%
Cc1cccc(C(=O)NCC2CCCO2)c1 (centres undefined) | 34% | -3 | -0.3% | -24%
CCc1ccc(C(CC(=O)c2ccc(Cl)cc2)C(=O)O)cc1 (centres undefined) | -7% | 2 | -1.8% | -2%
Cc1ccc(OCC(=O)N2c3ccccc3NC(=O)C2(C)C)c([N+](=O)[O-])n1 | 6% | 0 | 6.1% | -1%
O=C(/C=C/c1ccc(F)cc1)N1CCN(S(=O)(=O)/C=C/c2ccccc2)CC1 | 1% | -3 | 5.3% | 0%
CC1CCN(CCNC(=O)C2CCCN(S(=O)(=O)c3cccc4nsnc34)C2)CC1 (centres undefined) | ? | . | -2.2% | 0%
Cc1[nH]nc2c1C(c1ccc3c(c1)OCO3)C(C#N)=C(N)O2 (centres undefined) | -3% | -5 | 5.0% | -10%
CC(C)n1cc(/C=C/c2cc[n+](C)cc2)c2ccccc21 | ? | . | ? | ?
CNC(=O)c1ccccc1NC(=O)c1cccc(S(=O)(=O)N2CCC(C)CC2)c1 | -1% | -4 | -0.2% | 1%
O=C(NNC(=O)c1cc(-c2ccco2)nc2ccccc12)c1ccccc1 | -14% | 7 | -0.9% | 4%
CC(=O)N1CCCc2ccccc21 | 7% | 1 | 2.6% | 0%
CC(=O)c1cccc(NC(=O)N2CCC(NC(=O)C34CC5CC(CC(C5)C3)C4)CC2)c1 | 1% | 0 | -0.1% | -7%
CC1CN(C(=O)c2cc3cc([N+](=O)[O-])ccc3s2)CC(C)O1 (centres undefined) | -7% | 6 | ? | -5%
CC(O)CNc1nc2ccccc2n1CC(=O)NCCc1ccc(Cl)cc1 (centres undefined) | 22% | 5 | -2.2% | -5%
Cc1ccc2nc3c(cc2c1)c(C)nn3-c1ccccc1 | ? | . | ? | -1%
Cc1cc(OCc2cc(C(=O)NCc3csc(C(C)C)n3)no2)cc(C)c1Cl | -15% | . | 5.0% | -9%
COc1ccc(-c2noc(CCC(=O)NCC3CCCO3)n2)cc1OC (centres undefined) | 6% | . | -1.1% | -2%
COc1ccc(Nc2cc(C(=O)NCCCOC(C)C)c3ccccc3n2)c(OC)c1 | 11% | . | -3.1% | 4%
c1ccc(-n2nnc(-c3cccnc3)n2)cc1 | 4% | -3 | -0.1% | -59%

Some of the entries above, reformatted.
Rango release inh	GLA inh pH 4.5	Rango-impB inh	miR-21 FLuc	compound
7%	1	2.6%	0%	CC(=O)N1CCCc2ccccc21
6%	0	6.1%	-1%	Cc1ccc(OCC(=O)N2c3ccccc3NC(=O)C2(C)C)c([N+](=O)[O-])n1

The results go on.
Structure | Rango release inh | GLA inh pH 4.5 | Rango-impB inh | miR-21 FLuc
COc1ccc(-c2cc(C(=O)NN)[nH]n2)cc1 | -4% | 2 | -0.3% | -5%
Nc1ccc2c(c1)C(=O)c1ccc(N)cc1-2 | -3% | . | 2.9% | .
COc1ccc(NC(=O)CSc2ccc3nnc(-c4ccccn4)n3n2)cc1 | -10% | . | -1.1% | -2%
C=CCOc1ccc(/C=C2\SC(N3CCCCC3)=NC2=O)cc1 | 11% | . | 1.8% | -6%
Cc1ccc2nc(SCC(=O)N3CCCc4ccccc43)nc(=O)n2c1 | -5% | . | -4.0% | .
CC(=O)C1=C(Nc2ccc(C)cc2)CC(C)(O)C(C(C)=O)C1c1ccco1 (centres undefined) | 6% | 4 | 3.6% | -10%
COc1cc(OC)cc(C(=O)N[C@H](C(=O)OCC(=O)c2ccc(C)c([N+](=O)[O-])c2)C(C)C)c1 | -6% | . | 5.1% | .
O=C(Nc1ccc2c(c1)OCO2)N1CCN(C/C=C/c2ccccc2)CC1 | -4% | 8 | 0.0% | -24%
COc1cccc(N2CCN(C(=S)Nc3ccccc3OC)CC2)c1 | 23% | . | -2.6% | -3%
Cc1ccc(OCc2nnc(SCC(=O)Nc3ccc(N4CCOCC4)cc3)o2)cc1 | -10% | . | 1.3% | 8%
COc1ccc(NC(=O)CN(c2ccccc2F)S(=O)(=O)c2ccc(C)cc2)c(OC)c1 | -19% | . | 0.0% | -3%
CC1CC2C3CCC4=CC(=O)C=CC4(C)C3(F)C(O)CC2(C)C1(O)C(=O)CO (centres undefined) | -13% | -8 | -0.2% | -22%

These rows are one share of the data; rates above refer to the full screens.
